# AID923 – qHTS Assay for Allosteric/Competitive Inhibitors of Caspase-1: Spectroscopic Profiling in AFC Spectral Region; compound fluorescence, AFC spectral region (405/520 nm); almost no hit is shown here; Potency, µM (highest dose often 57.5 µM), inactives show top-dose fluorescence increase, most hits filed as activators; 75,000 compounds, 1.1% hits; active means well fitted activation curve with a large enough effect; inconclusive means small, poorly fitted or top-dose-only effect;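 further: potency means the concentration at half of the fitted maximal effect; 0% is about no effect; scaled to a free AFC standard on each plate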
#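 Titrations up to 57 uM read every 20 sec for 3 min (405/520 nm) with 50 nM caspase 1 and 5 uM Ac-WEHD-AFC, pH 7.5 HEPES buffer. Fluorescence-vs-time intercept gave baseline, scaled against on-plate AFC standard.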
# A488 autofl – compound fluoresces in the A488 spectral region; compound autofluorescence, A488 spectral region, dye equivalency; active compounds read high; max dye equivalency, M; 59,000 compounds, 0.1% hits; active = above 10 nM dye equivalent; inconclusive = 1 to 10 nM; inactive = 1 nM or less; about half of its hits are not listed in these tables;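 further: highest value over a series up to 38 µM; compound alone in buffer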
#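 Compounds pin-transferred into 100 mM Tris buffer, pH 8.0, incubated 15 min at room temperature, then imaged with 480 nm excitation/540 nm emission filters. Fluorescence converted to Alexa 488 dye-equivalent concentration via an on-plate six-point A488 standard curve.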
# Resorufin autofl – resorufin region autofluorescence | 59,000 compounds, 0.04% hits | AID 588 | Compound fluorescence, resorufin region 547/598 nm, buffer; active compounds read high | max dye-equivalent concentration, M; active = above 10 nM dye equivalent; inconclusive = 1 to 10 nM; inactive = 1 nM or less; a few of its hits are not listed in these tables; further: highest value over a series up to 38 µM
#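 Compounds in 100 mM Tris buffer, pH 8.0, incubated 15 min at room temperature, then read with 547 nm excitation and 598 nm emission filters. Fluorescence was converted to dye-equivalent concentration using an on-plate six-point resorufin standard curve.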
# TSHR agonist – activates the human thyroid stimulating hormone receptor | P16473 | HEK293-CNG-TSHR cells (CNG channel as cAMP sensor), membrane potential dye, cAMP | Potency, µM (top dose mostly 57.1 µM), for the others: top-dose activation, hits mostly activators | 73,000 compounds, 0.48% hits | AID 926; active = well fitted activation curve of enough size with the parental cells flat; inconclusive = any curve in the parental cells; inactive = parental cells flat and receptor cells flat or falling; further: potency means the concentration at half of the fitted maximal effect; % of control where 0% means no effect; weak receptor curves with flat parental cells got no call and are not listed
# Target sequence (P16473 whole entry, looked up): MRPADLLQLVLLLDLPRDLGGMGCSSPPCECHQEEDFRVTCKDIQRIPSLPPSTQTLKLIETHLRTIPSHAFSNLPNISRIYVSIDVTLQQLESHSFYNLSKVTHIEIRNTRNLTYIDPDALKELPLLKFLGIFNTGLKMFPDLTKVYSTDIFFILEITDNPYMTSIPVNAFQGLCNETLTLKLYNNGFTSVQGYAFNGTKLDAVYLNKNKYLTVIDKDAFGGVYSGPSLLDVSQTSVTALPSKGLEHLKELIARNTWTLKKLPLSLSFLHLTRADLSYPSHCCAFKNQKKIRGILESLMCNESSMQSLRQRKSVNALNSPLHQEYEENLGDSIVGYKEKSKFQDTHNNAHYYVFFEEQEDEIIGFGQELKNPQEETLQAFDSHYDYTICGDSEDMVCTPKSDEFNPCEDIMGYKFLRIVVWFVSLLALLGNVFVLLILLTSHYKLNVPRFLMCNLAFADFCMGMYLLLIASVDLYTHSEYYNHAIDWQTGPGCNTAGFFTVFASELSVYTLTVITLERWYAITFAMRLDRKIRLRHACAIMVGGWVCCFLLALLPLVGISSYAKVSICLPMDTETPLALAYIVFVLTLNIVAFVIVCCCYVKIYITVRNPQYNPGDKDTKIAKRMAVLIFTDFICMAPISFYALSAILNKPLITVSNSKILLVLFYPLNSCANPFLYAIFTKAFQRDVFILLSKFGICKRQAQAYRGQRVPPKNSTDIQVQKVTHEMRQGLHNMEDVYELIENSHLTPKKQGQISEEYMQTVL
#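 cAMP rise detected as CNG-channel membrane depolarization by fluorescent dye (emission 590 nm), 30 min after compound, following 60 min dye loading containing 100 uM RO 20-1724 at room temperature. Cells: TSHR/CNG HEK 293, with parental CNG HEK 293 as control.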
# A647 autofl – compound fluoresces in the A647 spectral region; Compound fluorescence, A647 channel (570/671 nm), Tris buffer; max dye-equivalent concentration, M; 59,000 tested, under 10 active; active means above 1 µM dye equivalent; inconclusive means 0.1 to 1 µM; inactive means 0.1 µM or less;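 further: values scaled relative to a standard on each plate; highest value over a series up to 38 µM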
#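 Compounds pinned into 100 mM Tris pH 8.0, 15 min at room temperature, then read with 570 nm excitation/671 nm emission filters. Fluorescence normalized to an on-plate six-point Alexa 647 standard curve, giving dye-equivalent concentration per compound concentration.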
# Starred values were filed as active, the others as inactive; i = inactive; ? = inconclusive; . = no result given; & = joins results of further samples; [ ] = dose if it differs, or a comment. Some of the compounds tested, so the mix of outcomes need not match the whole.
# Key to letters – A = AID923; B = A488 autofl; C = Resorufin autofl; D = TSHR agonist; E = A647 autofl
CCCCCCCCCCCCCCCCOC[C@@H](COCC(F)(F)F)OP(=O)(O)OCO
  A: .	B: i	C: i	D: 20µM*	E: 1.5e-08

CC(C)[C@@H](OCc1ccccc1)[C@H](C)/C=N\OC[C@@H](O)COCc1ccco1
  A: -0.2%[11.5 µM]	B: .	C: .	D: -1%[11.4 µM]	E: .

Cc1onc(-c2c(Cl)cccc2Cl)c1C(=O)N1CCc2ccccc21
  A: -0.8%	B: .	C: .	D: ?	E: .

NS(=O)(=O)c1ccc(NC(=O)Nc2ccccc2F)cc1
  A: 1.2%[11.5 µM]	B: i	C: i	D: 2%[11.4 µM]	E: 4e-08

CS(=O)(=O)N1CCc2cc(S(=O)(=O)N3CCN(Cc4ccc5c(c4)OCO5)CC3)ccc21
  A: -0.2%	B: i	C: i	D: -10%	E: 1e-09

Cc1ccccc1NC(=O)c1nc[nH]c1C(=O)NCc1ccccc1
  A: -1.1%	B: i	C: i	D: -22%	E: 1.6e-08

Cc1ccc(C(=O)Nc2ncc3c(n2)CC(c2ccco2)CC3=O)cc1 (stereo not drawn)
  A: 0.2%	B: i	C: i	D: 12%	E: 1e-09

O=C(O)[C@H]([C@H]1NCCS1)N1Cc2ccccc2C1
  A: 3.6%[11.5 µM]	B: i	C: i	D: 3%[11.4 µM]	E: 1e-09

Cc1ccc(-n2c(C)cc(C(=O)COC(=O)c3c(C)noc3C)c2C)cc1
  A: -1.0%	B: i	C: i	D: ?	E: 2.6e-08

FC(F)(F)c1cccc(-c2noc(-c3cc(-c4ccccc4)c(C(F)(F)F)s3)n2)c1
  A: 0.7%	B: .	C: .	D: -1%	E: .

COc1cccc2cc(-c3cn4cccc(C)c4n3)c(=O)oc12
  A: 11%	B: i	C: i	D: 0%	E: 1e-09

CCCCOc1ccc(C(=O)OC2CC(C)N(C)CC2C)cc1 (stereo not drawn)
  A: .	B: i	C: i	D: .	E: 1.6e-08

CSc1c[n+]2c(n1C)CCC2
  A: 1.6%	B: i	C: i	D: -13%	E: 4.1e-08

Cc1ccc(N2CCN(S(=O)(=O)c3ccc(F)c(C)c3)CC2)c(C)c1
  A: 0.6%	B: i	C: i	D: 4%	E: 1.3e-08

CSc1snc(SCC(N)=O)c1C#N
  A: -0.2%	B: i	C: i	D: 1%	E: 4.8e-09

CCCC(=O)Nc1cc(OC)c(OC)cc1C(=O)O
  A: -2.3%	B: i	C: i	D: 6%	E: 7.2e-09

CC1(C)Cc2nc(NCCCO)c(C#N)cc2CO1
  A: .	B: i	C: i	D: .	E: 1.1e-08

CC(C)(C)NC(=O)c1ccccc1-c1nc(-c2ccccc2Cl)no1
  A: 1.5%	B: i	C: i	D: ?	E: 4.2e-09

O=C(NCCCN1CCN(c2cccc(Cl)c2)CC1)c1nc(-c2ccncc2)no1
  A: 1.4%	B: i	C: i	D: ?	E: 5.2e-09

CCOc1cccc(N2C(=O)CC(N3CCC(C(N)=O)(N4CCCCC4)CC3)C2=O)c1 (stereo not drawn)
  A: -0.1%	B: i	C: i	D: -1%	E: 4.1e-08

CC(C)NC(=O)Cn1nnc(-c2cccc(NC(=O)c3ccccc3F)c2)n1
  A: 1.3%	B: i	C: i	D: 1%	E: 7.1e-09

CCOC(=O)C1CCN(c2c(N3CCCCCC3)c(=O)c2=O)CC1
  A: -0.4%	B: .	C: .	D: 0%	E: .

CCc1ccccc1N1CCN(S(=O)(=O)c2ccc(F)c(C)c2)CC1
  A: -1.6%	B: i	C: i	D: ?	E: 8.3e-09

O=C(CN(c1ccc(F)cc1)S(=O)(=O)c1ccc2c(c1)OCCO2)N1CCOCC1
  A: -1.7%	B: .	C: .	D: ?	E: .

O=C(CSc1nc2c(c(=O)[nH]1)CCC2)Nc1cccc(Cl)c1
  A: -3.1%	B: i	C: i	D: 5%	E: 3.1e-09

Cc1nc(-c2ccc(NC(=O)c3cccs3)cc2)cs1
  A: -1.2%	B: i	C: i	D: 13%	E: 1e-09

Cc1cc(/C(=N/O)C(C)(C)NO)ccc1Cl
  A: -0.3%	B: i	C: i	D: .	E: 1e-09

CN(C)CCCCN1CCc2c(n(C)c3ccccc23)C1=O
  A: -2.5%[11.5 µM]	B: i	C: i	D: 4%[11.4 µM]	E: 1e-09

CCOC(=O)CNS(=O)(=O)c1ccc(S(=O)(=O)N2CCCC2)cc1
  A: -3.2%	B: i	C: i	D: 0%	E: 2.4e-08

CCc1nc(-c2ccccc2O)n(-c2ccccc2)n1
  A: 5.3%	B: i	C: i	D: ?	E: 1.4e-09

# In the list so far, 2 have a thiophene ring, fused or not.
# Key to letters – A = AID923; B = A488 autofl; C = Resorufin autofl; D = TSHR agonist; E = A647 autofl
FC(F)(F)c1cccc(-c2noc(-c3cc(-c4ccccc4)c(C(F)(F)F)s3)n2)c1
  A: 0.7%	B: .	C: .	D: -1%	E: .

Cc1nc(-c2ccc(NC(=O)c3cccs3)cc2)cs1
  A: -1.2%	B: i	C: i	D: 13%	E: 1e-09

# The results go on.
# Key to letters – A = AID923; B = A488 autofl; C = Resorufin autofl; D = TSHR agonist; E = A647 autofl
CCN(CC)C(=O)CSc1nnc(-c2cnccn2)n1-c1ccccc1
  A: 1.1%	B: i	C: i	D: 15%	E: 2.2e-08

Cn1c(CCNC(=O)c2ccco2)nc2cc(NC(=O)NC3CCCCC3)ccc21
  A: 0.0%	B: i	C: i	D: -1%	E: 3e-08

COCCNc1cc(C)c(C#N)c2nc3ccccc3n12
  A: .	B: i	C: i	D: .	E: 7.5e-08

COCCOC(=O)c1c(C)oc2ccc(NS(=O)(=O)c3ccccc3)cc12
  A: 1.6%	B: i	C: i	D: 7%	E: 2.8e-09

Cn1cc(C(=O)OCC2CCN(CCNS(C)(=O)=O)CC2)c2ccccc21
  A: -1.5%	B: i	C: i	D: 19%&-13%	E: 2.4e-09

CCOc1ccc(N(CC(=O)Nc2cccc(Cl)c2)S(=O)(=O)c2c(C)noc2C)cc1
  A: 2.2%	B: .	C: .	D: 6%	E: .

CC[C@@H]1Cn2c(c3nc(-c4ccccc4)nc-3n(C)c2=O)N1
  A: 2.6%	B: .	C: .	D: 3%	E: .

Cc1ccccc1Nc1nnc(SCC(=O)NCc2ccco2)s1
  A: -1.7%	B: i	C: i	D: 5%	E: 2e-09

CC(=O)C(Sc1nc(-c2ccc(F)cc2)nc2c1c(=O)n(C)c(=O)n2C)C(C)=O
  A: 1.2%	B: .	C: .	D: 0%	E: .

Cc1cc(-c2cccs2)c2c(n1)sc1c(=O)[nH]c(=O)[nH]c12
  A: 0.0%	B: i	C: i	D: 3%	E: 5.7e-09

O=C(Nc1cccc(F)c1)N1CCC2(CC1)CCN(C(=O)c1csnn1)CC2
  A: 2.3%	B: i	C: i	D: -5%	E: 1e-09

CCSc1nnc(NC(=O)C(Cc2ccccc2)n2cccc2)s1 (stereo not drawn)
  A: -0.1%	B: .	C: .	D: -11%	E: .

C/C(=N\[N+](C)(C)C)c1ccc(C)c(C)c1
  A: 4.3%[11.5 µM]	B: i	C: i	D: 0%[11.4 µM]	E: 1.5e-08

N#Cc1c2n(c(=S)n(-c3ccccn3)c1=O)CCCCC2
  A: 2.2%	B: i	C: i	D: 3%	E: 4.1e-09

Cc1cn(C(=O)CN2C(=O)c3ccccc3C2=O)c(C)n1
  A: 0.7%	B: i	C: i	D: -9%	E: 1e-09

# Structures from the list above that contain a CF3 group, in the order listed:
# Key to letters – A = AID923; B = A488 autofl; C = Resorufin autofl; D = TSHR agonist; E = A647 autofl
CCCCCCCCCCCCCCCCOC[C@@H](COCC(F)(F)F)OP(=O)(O)OCO
  A: .	B: i	C: i	D: 20µM*	E: 1.5e-08

FC(F)(F)c1cccc(-c2noc(-c3cc(-c4ccccc4)c(C(F)(F)F)s3)n2)c1
  A: 0.7%	B: .	C: .	D: -1%	E: .

# New compounds follow:
# Key to letters – A = AID923; B = A488 autofl; C = Resorufin autofl; D = TSHR agonist; E = A647 autofl
Cc1occc1-c1nnc(SCc2nnc(-c3ccc(Cl)cc3)o2)n1C
  A: -1.6%	B: i	C: i	D: ?	E: 3.6e-08

Cc1c(Br)cc(C(=O)O)c(C)c1C
  A: 1.1%	B: i	C: i	D: 10%	E: 3e-09

CCn1c(SCC(=O)c2cccs2)nnc1-c1cccs1
  A: -0.2%	B: i	C: i	D: 4%	E: 1.7e-09

CC1CCc2nn(CC(=O)NCCCN3CCCC3=O)cc2C1 (stereo not drawn)
  A: -5.3%	B: .	C: .	D: 2%	E: .

CNc1nc(-c2ccccc2C)nc2ccccc12
  A: 1.4%	B: i	C: i	D: 16%	E: 8.7e-09

Cc1cc(C)n2cc(CSc3nnnn3-c3ccccc3)nc2n1
  A: 3.0%	B: i	C: i	D: -1%	E: 1.2e-08

COc1ccccc1C1C(C(=O)c2cc3ccccc3o2)=C(O)C(=O)N1CCN1CCOCC1 (stereo not drawn)
  A: 0.9%	B: i	C: i	D: -3%	E: 1.6e-08

COc1ccc(CNC(=O)Nc2ccc(C)cc2)cc1
  A: -1.7%	B: i	C: i	D: 1%	E: 1e-09

Cn1c(SCC(=O)Nc2cc(=O)n(C)c(=O)n2C)nnc1C12CC3CC(CC(C3)C1)C2
  A: 0.8%	B: .	C: .	D: 0%	E: .

COc1cc(OC)cc(C(C(=O)NCc2ccccc2)N(Cc2ccco2)C(=O)c2ccno2)c1 (stereo not drawn)
  A: -0.1%	B: i	C: i	D: 12%	E: 2.5e-08

CCC(C)NC(=O)c1ccc(CS(=O)(=O)c2ccc(OC)cc2)o1 (stereo not drawn)
  A: -1.9%	B: .	C: .	D: 2%	E: .

CS(=O)(=O)N(CCc1ccccc1)CC(=O)NCC1CCCO1 (stereo not drawn)
  A: -0.9%	B: i	C: i	D: -2%	E: 5.6e-09

O=C(CSc1ccc2nnc(-c3ccncc3)n2n1)NCc1ccco1
  A: -2.0%	B: .	C: .	D: -9%	E: .

CN(CCC#N)C(=O)c1ccc(CNS(=O)(=O)c2ccc(F)cc2)cc1
  A: -0.1%	B: i	C: i	D: 9%[11.4 µM]	E: 8.6e-09

COc1ccc(C2c3c(oc4ccccc4c3=O)C(=O)N2CCCN2CCOCC2)cc1 (stereo not drawn)
  A: 0.8%	B: i	C: i	D: -3%	E: 1.5e-09

CN1CCN(C(=O)C2CC(=O)N(c3ccc(F)c(Cl)c3)C2)CC1 (stereo not drawn)
  A: -2.6%	B: .	C: .	D: 2%	E: .

C/C(=N/Nc1nc(C)cc(=O)[nH]1)C(=O)O
  A: 6.8%[11.5 µM]	B: i	C: i	D: 6%[11.4 µM]	E: 1.2e-08

COc1ccccc1C(=O)Nc1ccc2c(c1)nc1n2CCSC1
  A: 4.2%	B: i	C: i	D: -5%	E: 1.8e-08

O=C1c2ccccc2S(=O)(=O)N1Cc1cccc(S(=O)(=O)N2CCOCC2)c1
  A: -0.6%	B: i	C: i	D: 3%	E: 3.6e-09

Cc1cccc(N2CCN(C(=O)COc3cc(=O)n(C)c4ccccc34)CC2)c1C
  A: -1.4%	B: i	C: i	D: 5%[11.4 µM]	E: 7.1e-09

COc1ccc2nc3c(cc2c1)Cc1ccccc1-3
  A: 1.7%	B: .	C: .	D: ?	E: .

CN(C)C=NCCn1c(N2CCOCC2)nc2c1c(=O)n(C)c(=O)n2C
  A: 1.0%	B: i	C: i	D: .	E: 1e-09

O=C(CSc1nc2c(c(=O)n1-c1ccc(Cl)cc1)SCC2)N1CCOCC1
  A: 2.9%	B: .	C: .	D: 18%[11.4 µM]	E: .

COc1ccc(C2NC(C(=O)O)CS2)cc1COCC(F)(F)F (stereo not drawn)
  A: 2.4%	B: i	C: i	D: 6%	E: 2.4e-08
